High-throughput results: PubChem, National Center for Advancing Translational Sciences (NCATS)
MARV entry inh: blocks Marburg virus binding to or entry into cells; Marburg virus pseudotyped entry inhibition, cell reporter; control for the full effect not named in the record; about a third of the inactives were read at about 46 µM; Potency, µM (doses to about 37.8 µM), inactives show at the highest dose activity change, negative = inhibition, hits mostly inhibitors; actives 1.8% (n = 300,000); active = well fitted inhibition curve with a large enough effect; inconclusive = small, poorly fitted or top-dose-only effect, or effect the other way; inactive = flat fitted curve, though single readings scatter; tested in HEK293 cells; about a fifth of its hits are not listed in these tables; also: % is scaled to controls: 0 for no effect and ±100 for the full control effect; luciferase read-out
Cruzain noTriton: cruzain (T. cruzi) inhibition without detergent. AID 1476. P25779. Potency, µM, for the others: max response, negative = inhibition, actives largely listed as inhibitors. purified cruzain, Z-FR-AMC fluorescence, no detergent. actives 2.3% (n = 200,000); active = well fitted curve in the direction sought with a large enough effect; inconclusive = small, poorly fitted or top-dose-only effect, or another doubt; inactive = no such curve, though single readings can be large; an effect the other way counts as inactive or inconclusive;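 also: plate controls were enzyme without inhibitor for no effect and buffer without enzyme for full effect; nearly all actives have a fitted effect of over 40% in size; top concentration of the series not given in the record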
Target sequence (P25779 123-467 limits assumed): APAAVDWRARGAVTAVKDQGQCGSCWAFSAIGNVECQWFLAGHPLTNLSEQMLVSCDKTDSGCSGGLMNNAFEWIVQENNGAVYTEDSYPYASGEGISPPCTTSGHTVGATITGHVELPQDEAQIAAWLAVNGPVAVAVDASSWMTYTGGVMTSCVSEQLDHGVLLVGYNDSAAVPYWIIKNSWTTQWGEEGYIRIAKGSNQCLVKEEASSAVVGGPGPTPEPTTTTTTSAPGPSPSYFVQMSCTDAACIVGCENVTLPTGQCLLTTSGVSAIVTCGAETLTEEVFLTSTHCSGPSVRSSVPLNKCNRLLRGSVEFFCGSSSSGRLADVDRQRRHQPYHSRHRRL
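Detergent-free condition (0.00005% Triton X-100) in acetate buffer pH 5.5 with DTT. 1.5 nM enzyme and compound were pre-mixed 15 min, then 2 uM Z-FR-AMC substrate added; reaction progress from fluorescence change between first and third reads (60 s).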
StopGo reporter: FMDV 2A StopGo reporter, luciferase signal; human cells with a luciferase reporter of 2A StopGo recoding; control for the full effect not named in the record; Potency, µM (doses to about 57.9 µM), for the others: at the highest dose signal change, negative = less light; actives 1.2% (n = 410,000); AID 1159524; active = well fitted falling curve with a large enough effect; inconclusive = small, poorly fitted or top-dose-only effect; inactive = no such curve, though single readings can be large or run the other way; tested in HEK293T cells; also: % is scaled to controls: 0 for no effect and ±100 for the full control effect; nearly all actives have a fitted effect of over 45% in size; luciferase light after 4 h
NS1 inh: inhibitors of influenza NS1 protein function. S. cerevisiae slowed by influenza A NS1, growth recovery by OD600. Potency, µM (titrated, usually from 46.1 µM), inactives show at the highest dose activity, positive = more growth. actives 0.4% (n = 270,000); also: actives are rising curves; nearly all actives have a fitted effect of over 50% in size
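Growth recovery, yeast-based: influenza A NS1 expressed in S. cerevisiae causes slow growth, and suppressors are detected by OD600. The parent strain without NS1 is used as positive control.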
RE007 growth inh: less growth of the S. pombe RE007 Vpr strain. S. pombe RE007 Vpr strain, BacTiter-Glo ATP luminescence, 24 h; control for the full effect not named in the record. Potency, µM (doses to about 92.2 µM), without a hit: top-dose activity change, negative = less growth. AID 651644. actives 0.21% (n = 360,000); active = well fitted falling curve with a large enough effect; inconclusive = small, poorly fitted or top-dose-only effect; inactive = no such curve, though single readings can be large or run the other way;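 also: % is scaled to controls: 0 for no effect and ±100 for the full control effect; nearly all actives have a fitted effect of over 50% in size; the assay follows cell death caused by Vpr and the record does not say whether a fall means rescue or toxicity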
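Fission yeast strain RE007, carrying one chromosomally integrated HIV-1 vpr copy, was seeded at OD 0.01 in PMG+AL medium with 23 nL pinned compound. After 24 h at 30 °C and 99% humidity, viability was read by BacTiter-Glo luminescence.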
SARS PLP yeast: inhibitors of SARS-CoV papain-like protease in yeast; S. cerevisiae expressing SARS-CoV PLpro, growth rescue; control for the full effect not named in the record; Potency, µM (titrated, usually from 32.9 µM), for inactives: at the highest dose activity, positive = growth rescue; actives 0.19% (n = 330,000); also: 0% is about no effect; nearly all actives have a fitted effect of over 55% in size; growth read by luminescence after 48 h
Cruzain inh Det: blocks cruzain activity in presence of Triton detergent; P25779; purified cruzain, Z-FR-AMC fluorescence, 0.01% Triton; Potency, µM, for inactives: max response, negative = inhibition, hits mostly inhibitors; actives 0.43% (n = 200,000); AID 1478; active = well fitted curve in the direction sought with a large enough effect; inconclusive = small, poorly fitted or top-dose-only effect, or another doubt; inactive = no such curve, though single readings can be large; an effect the other way counts as inactive or inconclusive;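 also: plate controls were neutral wells for no effect and buffer without enzyme for full effect; nearly all actives have a fitted effect of over 40% in size; top concentration of the series not given in the record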
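15 min RT preincubation of 1.5 nM cruzain with compound, then 2 uM Z-FR-AMC added; kinetic AMC fluorescence, 60 s delta. Triton X-100 0.01%, pH 5.5.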
Lassa entry inh: Lassa virus entry inhibition; Potency, µM (doses to about 37.9 µM), for the others: top-dose activity change, negative = inhibition, most hits filed as inhibitors; Lassa virus pseudotype entry inhibition, cell reporter; control for the full effect not named in the record; actives 1.2% (n = 300,000); active means well fitted inhibition curve with a large enough effect; inconclusive means small, poorly fitted or top-dose-only effect, or effect the other way; inactive means flat fitted curve, though single readings scatter; tested in HEK293 cells; also: % is scaled to controls: 0 for no effect and ±100 for the full control effect; nearly all actives have a fitted effect of over 50% in size; luciferase read-out
* hit, by the source's call; ? = inconclusive; . = not tested or not shown; & = joins results of further samples; [ ] = another dose, or the depositor's remark. Unless noted, calls follow the shape of the dose curve; as a rule, active means well fitted rising curve with a large enough effect; inconclusive means small, poorly fitted or top-dose-only effect; inactive means no such curve, though single readings can be large or run the other way. Potency is read from the fitted curve at half-maximal effect.

SMILES	MARV entry inh	Cruzain noTriton	StopGo reporter	NS1 inh	RE007 growth inh	SARS PLP yeast	Cruzain inh Det	Lassa entry inh
O=C(O)CCN1C(=O)c2ccc(NC(=O)COc3ccccc3)cc2C1=O	?	.	-24%	-4%	-16%	0%	.	-2%
O=C(OCCN1CCOCC1)c1ccc(OCCN2CCOCC2)cc1	?	0%	-2%	-5%	21%	4%	3.6%	-15%
Cc1ccc(-n2nc3c(=O)n(CCCC(=O)NCc4ccccc4Cl)nc(C)c3c2C)cc1	.	.	-14%	8%	0%	-2%	.	.
COc1ccc(NC(=O)CSc2nc3ccccc3n2CC(=O)N2CCCCC2C)cc1 (stereo not given)	.	-2%	-12%	.	.	.	-1.1%	5%[46.1 µM]
CC(=O)c1ccc(NC(=S)NNC(=O)NC2CCCCC2)cc1	?	.	137%[activator]	.	25%	-2%	.	5%
COc1ccccc1C(=O)Nc1ccc2ccccc2c1	?	.	38%[activator]	.	?	.	.	?
COc1cc(OC)c(OC)cc1/C=C1\C(=O)NC(=O)N(Cc2ccccc2)C1=O	2%[46.1 µM]	.	-16%	.	-4%	5%	.	.
O=C1c2ccccc2C(=O)C1c1ccc(O)cc1	9%[46.1 µM]	.	4%	.	-26%	1%	.	-24%[46.1 µM]
CN(c1ccccc1)S(=O)(=O)c1cc(C(=O)N2CCN(c3ncccn3)CC2)ccc1Cl	?	.	?	.	14%	-14%	.	?
NS(=O)(=O)c1ccc(NC2=CC(=O)C(=O)c3ccccc32)cc1	5%[46.1 µM]	.	25µM*	1%	-27%	.	.	0%[46.1 µM]

Arranged by length of the SMILES (rising): part of the list above.
SMILES	MARV entry inh	Cruzain noTriton	StopGo reporter	NS1 inh	RE007 growth inh	SARS PLP yeast	Cruzain inh Det	Lassa entry inh
O=C1c2ccccc2C(=O)C1c1ccc(O)cc1	9%[46.1 µM]	.	4%	.	-26%	1%	.	-24%[46.1 µM]
CC(=O)c1ccc(NC(=S)NNC(=O)NC2CCCCC2)cc1	?	.	137%[activator]	.	25%	-2%	.	5%
NS(=O)(=O)c1ccc(NC2=CC(=O)C(=O)c3ccccc32)cc1	5%[46.1 µM]	.	25µM*	1%	-27%	.	.	0%[46.1 µM]
O=C(O)CCN1C(=O)c2ccc(NC(=O)COc3ccccc3)cc2C1=O	?	.	-24%	-4%	-16%	0%	.	-2%
COc1cc(OC)c(OC)cc1/C=C1\C(=O)NC(=O)N(Cc2ccccc2)C1=O	2%[46.1 µM]	.	-16%	.	-4%	5%	.	.
Cc1ccc(-n2nc3c(=O)n(CCCC(=O)NCc4ccccc4Cl)nc(C)c3c2C)cc1	.	.	-14%	8%	0%	-2%	.	.
CN(c1ccccc1)S(=O)(=O)c1cc(C(=O)N2CCN(c3ncccn3)CC2)ccc1Cl	?	.	?	.	14%	-14%	.	?

Next structures follow.
SMILES	MARV entry inh	Cruzain noTriton	StopGo reporter	NS1 inh	RE007 growth inh	SARS PLP yeast	Cruzain inh Det	Lassa entry inh
CCCCCCN(C(=O)CCCCCN1C(=O)NC(c2ccc([N+](=O)[O-])cc2)C(C(=O)OCc2ccccc2)=C1C)C(C(=O)NCCCC)c1ccc(OCC(=O)OC)c(C(=O)OC)c1 (stereo not given)	.	8%	.	1%	.	1%	2.6%	.
COC(=O)c1[nH]c2ccc(F)cc2c1NC(=O)CCN1CCN(C(=O)c2ccco2)CC1	-4%	-4%	.	-4%	.	1%	-5.7%	.
COC(=O)CSc1ccc(S(=O)(=O)N2CCC(C)CC2)cc1[N+](=O)[O-]	?	4%	1%	10%	-4%	-2%	-3.1%	-8%
O=C1c2cccc3cccc(c23)C(=O)N1CCN1CCN(C(=S)Nc2ccc(F)cc2)CC1	1%	?	.	20%	.	-4%	-0.7%	16%
Cc1ccc(-c2c(C(=O)N(C)Cc3ccccc3)oc(=O)c3ccccc23)cc1	?	-6%&-1%	-2%&25%	-12%	13%	-47%	-2.8%&-5.7%	-16%[46.1 µM]
CCC(C)NC(=O)c1cc2c(Cl)nc3ccc(C)cc3c2s1 (stereo not given)	?	2%	-3%	.	.	.	-1.1%	-22%[46.1 µM]
Cc1sc2ncn(CC(=O)NCc3ccco3)c(=O)c2c1-c1ccc(F)cc1	6%[46.1 µM]	.	-14%	-5%	-12%	-1%	.	7%
CCCN1CNC(=S)N(c2ccccc2OC)C1	19%	-12%	-21%	4%	-14%	-12%	-1.4%	-3%
CC1(C(=O)Nc2cccc3ccccc23)CC1(Br)Br (stereo not given)	.	.	-15%	2%	102%	-1%	.	.
COc1ccccc1P(=O)(c1ccccc1)c1ccccc1	.	.	-13%	?	-2%	1%	.	.
CCC(=O)N(C)CCc1cc2c(c(OC)c1/C=N/NC(=O)c1ccc(Br)cc1)OCO2	-2%	?	25%	-1%	-5%	-12%	-6.1%	-2%
CCOc1ccc(CCNC(=O)Cn2nc(C)n3c(cc4occc43)c2=O)cc1OCC	-2%[46.1 µM]	-1%	-4%	.	.	.	-1.6%	-2%[46.1 µM]
COc1cc(/C=N/NC(=O)c2ccncc2)ccc1OC(C)=O	.	.	-5%	11%	-11%	-3%	.	.
CC(C)CCN1CCN(Cc2c(F)cccc2Cl)CC1CCO (stereo not given)	.	.	-5%	0%	-18%	0%	.	.
CCC(=O)Nc1ccccc1-c1nc2ccccc2n(Cc2cccc(Br)c2)c1=O	-3%[46.1 µM]	-4%	-17%	.	.	.	-9.6%	-1%[46.1 µM]
CC(=NC1CCN(Cc2ccccc2)CC1)c1c(O)n(C)c(=O)n(C)c1=O	18%	-3%	-21%	7%	-11%	3%	3.7%	4%
CC(OC(=O)c1cccc(-n2cnnn2)c1)C(=O)NCc1ccccc1 (stereo not given)	19%[46.1 µM]	.	-8%	.	3%	3%	.	10%
CN(C)CCOCCOc1ccccc1-c1ccccc1	-9%	-4%	5%	12%	10%	2%	6.0%	-1%
O=C(COC(=O)CCc1ccc(S(=O)(=O)N2CCOCC2)cc1)NC1CCCCCC1	13%	0%	-5%	4%	8%	-18%	0.2%	0%
CCOC(=O)CN(C)C(=O)CCc1nnc(-c2ccc(-c3ccccc3)cc2)o1	13%[46.1 µM]	.	-12%	-33%	-10%	-4%	.	-5%[46.1 µM]
COc1ccc(-c2cn3c(n2)sc2cc(C(=O)NCc4ccccc4)ccc23)cc1	.	-7%	-14%	.	.	.	-4.2%	-14%[46.1 µM]
N=c1c(C(=O)NC2CCCC2)cc2c(=O)n3ccccc3nc2n1C1CCCCC1	?	.	-8%	0%	?	0%	.	.
CC(C)CC(c1nnnn1CC1CCCO1)N1CCN(Cc2ccc3c(c2)OCO3)CC1 (stereo not given)	?	7%	-22%	-6%	-18%	4%	6.4%	5%
C=CCn1c(N)cc(=O)nc1SCC(=O)N1CCN(c2ccc(F)cc2)CC1	8%	-24%	.	12%	-7%	-2%	-20%	-4%
O=[N+]([O-])c1cccc(-c2ccc(/C=N/NC(=S)Nc3cccc(F)c3)o2)c1	-6%	.	?	7%	-15%	3%	.	-2%
C/C(CC(=O)Nc1ccc(C)c(Cl)c1)=N\NC(=O)c1ccco1	?	.	20%	1%	-20%	-1%	.	-18%[46.1 µM]
O=C(NNC(=S)NC1CCCCC1)c1cccc(S(=O)(=O)Nc2ccccc2Cl)c1	6%	7%	-9%	26%	22%	?	-4.1%	?
CC(C)(C)c1ccc(C(=O)Nc2ncn[nH]2)cc1	?	.	42%[activator]	-2%	17%	16%	.	?
Cc1ccc(S(=O)(=O)c2cc3c(=O)n4ccccc4nc3n(C)c2=N)cc1C	.	.	-7%	-9%	4%	-1%	.	.
O=C(NNC(=O)C1CC1c1ccccc1)Nc1ccccc1 (stereo not given)	13%	-5%	-9%	-4%	1%	-5%	0.7%	-1%
COCCNC(=O)/C(C#N)=C1\N=C(N)c2ccccc21	8%	?	0%	-2%	0%	6%	-6.1%	?
CCCCN1C(=O)C(=O)N(CC(=O)N2CCc3ccccc32)C1=O	-21%	.	4%	.	-6%	0%	.	2%
C[C@]12CCC3C(CC[C@H]4C[C@@H](O)CC[C@]34C)C1CC[C@@H]2OC(=O)[C@H](N)CCCCN (stereo not given in full)	?	.	-23%	.	4%	-3%	.	?
Cc1ccc2cc(-c3noc(C4CCCO4)n3)c(=O)[nH]c2c1 (stereo not given)	.	-5%	51%[activator]	2%	0%	2%	-5.0%	.
Cc1n[nH]c(=O)c2c(NC(=O)CSc3ccc(Br)cc3)oc(C)c12	5%	.	-3%	.	20%	3%	.	9%[46.1 µM]
Cc1ccc(S(=O)(=O)NCC[C@@]2(C)C3CCC2(C)C(=O)C3)cc1 (stereo not given in full)	2%[46.1 µM]	.	8%	8%	-4%	0%	.	-13%[46.1 µM]
CCN1C(=O)C(Cc2nc3ccccc3c(=O)n2C)c2ccccc21 (stereo not given)	16%	1%	-14%	-6%	2%	6%	-0.3%	-12%
COc1ccc(NC(=O)CN(C)C(=O)c2cc(-c3ccncc3)nc3ccccc23)cc1	-29%	.	-17%	-6%	-15%	3%	.	-13%
COC(=O)CC1(CC(N)=O)SCCS1	10%	.	-9%	.	7%	.	.	-1%
CC1=C(C(=O)OCCCBr)C(c2ccc3c(c2)OCO3)NC(=O)N1 (stereo not given)	-2%	.	-22%	22%	-3%	1%	.	17%
CN=C1SC(CC(=O)Nc2sc3c(c2C#N)CCCC3)C(=O)N1C (stereo not given)	11%	?	-5%	-9%	17%	-3%	-2.7%	-8%
